CBX7 AlphaScr = CBX7 inhibition, primary AlphaScreen. O95931. AlphaScreen His6-CBX7 / biotin-H3K27me3 peptide binding; hits give low values. normalised signal (fraction of DMSO) (concentration not given with the values). 66,000 tested, 1.1% active. AID 1224903; in the data active = normalised signal below about 0.5;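 also: 100 nL library stock added to about 20 µL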
Target sequence (O95931 whole entry, looked up): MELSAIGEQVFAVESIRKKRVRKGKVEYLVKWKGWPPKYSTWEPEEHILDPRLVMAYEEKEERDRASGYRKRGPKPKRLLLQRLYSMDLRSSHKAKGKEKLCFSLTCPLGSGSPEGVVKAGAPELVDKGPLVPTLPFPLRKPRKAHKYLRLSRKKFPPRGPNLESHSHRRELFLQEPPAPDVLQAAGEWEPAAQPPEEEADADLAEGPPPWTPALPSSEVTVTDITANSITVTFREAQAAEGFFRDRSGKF
CBX7 AlphaScr z-score = recorded beside CBX7 AlphaScr, whose call it bears; z-score; measured here: z-score of CBX7 signal; some inactives read as strong as hits; reference of the scale not given here;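 same signal on another scale; lower means less binding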
* = called active by the depositor. A portion of the library, so the mix of outcomes need not match the whole.

Fields: CBX7 AlphaScr, CBX7 AlphaScr z-score
O=C(NCc1cccnc1)c1cc(-c2cccc(Br)c2)nc2ccccc12
  0.965, -0.34
Cc1cc(OCc2nc(-c3ccccn3)no2)cc(C)c1Cl
  0.927, -0.721
CCOC(=O)N1CCN(S(=O)(=O)c2cnc[nH]2)CC1
  1.1, 1.52
CCN(c1cccc(C)c1)S(=O)(=O)c1ccc2c(c1)CC(C)N2C(C)=O (stereo not drawn)
  1.05, 1.64
Cc1ccc(CN2C(=O)CCC2C(=O)NCc2cccs2)cc1 (stereo not drawn)
  1.06, 2.64
CCOC(=O)c1cnc2c(C)c(Cl)ccc2c1Nc1ccccc1OC
  1.05, 0.112
COc1cccc(CNC(=O)C2C3C=CC4(CN(Cc5ccccc5Cl)C(=O)C24)O3)c1 (stereo not drawn)
  1.04, 1.86
O=C(Nc1ccc2c(c1)OCO2)c1cc(-c2ccc(Br)cc2)nc2ccccc12
  0.972, -0.646
CC12CC3CC(C)(C1)CC(OCCNC(=O)c1cc4c(s1)-c1ccccc1OC4)(C3)C2
  1.26, 3.67
CCOC(=O)C1CCN(C(C(=O)NC2CCCCC2)c2ccc(C)cc2)CC1 (stereo not drawn)
  1.01, 0.523
CCCc1cc(=O)n2[nH]c(-c3ccc(Cl)cc3)cc2n1
  1, 0.037
O=C(Nc1ccccc1C(F)(F)F)C1(S(=O)(=O)c2ccc(Cl)cc2)CC1
  1.01, 0.153
CCC(Cc1ccccc1)NC(=O)C1CCCN(c2nn3c(=O)cc(C)nc3s2)C1 (stereo not drawn)
  1.18, 1.34
O=C(CCc1ccccc1)Nc1c(-c2ccc(F)cc2)nc2ccccn12
  1.03, 0.0512
Cc1ccccc1CN1C(=O)c2ccccc2Sc2ccc(C(=O)N3CCCC3)cc21
  0.8, -5.19
Cc1ccc(S(=O)(=O)N2CC=C(C(=O)NCCC(C)C)CC2)cc1
  1.13, 1.44
CCOc1ccc(NC(=O)c2c(NC(=O)c3cccs3)sc3c2CCC3)cc1
  1.06, 2.52
Cc1ccc(N2C(=O)CC(N3CCN(c4ccccn4)CC3)C2=O)cc1 (stereo not drawn)
  1.01, 0.217
CCOC(=O)c1cnc2c(C(F)(F)F)cccc2c1Nc1ccc(NC(C)=O)cc1
  0.863, -4.14
CCOC(=O)c1oc2ccccc2c1NC(=O)c1ccc(S(=O)(=O)N(C)C2CCCCC2)cc1
  1.09, 3.39

A section taken from the entries so far, as a working copy:
Fields: CBX7 AlphaScr, CBX7 AlphaScr z-score
Cc1ccc(N2C(=O)CC(N3CCN(c4ccccn4)CC3)C2=O)cc1 (stereo not drawn)
  1.01, 0.217
CCOC(=O)c1cnc2c(C(F)(F)F)cccc2c1Nc1ccc(NC(C)=O)cc1
  0.863, -4.14
CCOC(=O)c1oc2ccccc2c1NC(=O)c1ccc(S(=O)(=O)N(C)C2CCCCC2)cc1
  1.09, 3.39

(listing goes on)
Fields: CBX7 AlphaScr, CBX7 AlphaScr z-score
Cc1noc(C)c1S(=O)(=O)N1CCCC(C(=O)N2CCN(c3ccc(F)cc3)CC2)C1 (stereo not drawn)
  1.07, 1.09
Cc1nc2c(C(=O)NC3CCCCC3)cnn2c(C)c1Cc1cccc(Br)c1
  0.924, -1.87
CCC(C)NC(=O)c1ccc2nc(N3CCOCC3)sc2c1 (stereo not drawn)
  1.08, 3.28
O=C(CN(c1ccc(Cl)c(C(F)(F)F)c1)S(=O)(=O)c1ccccc1)NCc1cccnc1
  0.982, -0.506
CCn1c(SCCOc2ccc(Cl)cc2)nc2ccccc21
  1.4, 11.1
Cc1ccc(Nc2c3c(nc4ccc(Cl)cc24)CCCC3)cc1F
  0.88, -0.163
Cc1cc(N2CCOCC2)nc2ccc(NC(=O)CCC(=O)NC3CCCCC3)cc12
  0.951, -1.09
CC1(C)CC(=O)C2=C(C1)N(c1ccccc1C(F)(F)F)C(=O)CC2c1cccnc1 (stereo not drawn)
  1.08, 1.47
O=S(=O)(c1cnc[nH]1)N1CCN(c2cccc(Cl)c2)CC1
  0.951, -0.798
COc1ccc(C2=NN(CCC(=O)NC3CCC(C)CC3)C(=O)CC2)cc1 (stereo not drawn)
  0.983, -0.3
Cc1ccccc1Cn1cc(NC(=O)c2cc(CC(C)C)on2)cn1
  1.05, 0.313
CC1CN(c2cc(=O)n(-c3cccc(Br)c3)c(=O)[nH]2)CC(C)O1 (stereo not drawn)
  1.01, 0.209
COc1ccc(-c2cc(C(=O)Nc3cc(C)n(Cc4ccc(Cl)cc4)n3)no2)cc1
  0.994, -0.136
O=C(C1CCC1)N1CCc2cc(S(=O)(=O)NCc3ccc4c(c3)OCO4)ccc21
  1.07, 2.46
Cc1ccc2nc(-c3cccc(Cl)c3)c(Nc3ccc4c(c3)OCCO4)n2c1
  0.838, -2.65
Cc1cccc(-n2c(Cc3cc(=O)[nH]c(=O)[nH]3)nnc2SCC(=O)Nc2ccc(C)cc2C)c1
  1.06, 0.241
Cc1nc2c(C(=O)NCCc3ccccc3)cnn2c(C)c1Cc1c(F)cccc1Cl
  1, 0.00113
Cc1ccc(CNC(=O)c2c(-c3ccccc3Cl)noc2C)cc1
  0.863, -0.603
O=C(NCc1ccc(Cl)cc1)C1CCCN(c2nnc(-n3cccc3)s2)C1 (stereo not drawn)
  1.02, 0.805
Cc1nc2c(C#N)c(C)[nH]n2c(=O)c1Cc1ccccc1
  1.18, 3.22

Reprinted at random: two entries already listed, in no set order.
Fields: CBX7 AlphaScr, CBX7 AlphaScr z-score
Cc1nc2c(C(=O)NC3CCCCC3)cnn2c(C)c1Cc1cccc(Br)c1
  0.924, -1.87
Cc1ccccc1Cn1cc(NC(=O)c2cc(CC(C)C)on2)cn1
  1.05, 0.313

Next part:
Fields: CBX7 AlphaScr, CBX7 AlphaScr z-score
CC1CCC(NS(=O)(=O)c2ccc3c(c2)NC(=O)CC(=O)N3)CC1 (stereo not drawn)
  1.02, 0.828
CCC(=O)N1CCc2cc(Br)cc(S(=O)(=O)NCCN3CCCCC3C)c21 (stereo not drawn)
  1.03, 1.26
COc1ccc(CCNC(=O)c2oc3ccc(S(=O)(=O)N4CC(C)CC(C)C4)cc3c2C)cc1OC (stereo not drawn)
  0.998, -0.0027
COCCCNC(=O)c1cn(CC(C)C)c(=O)c2c1c1ccccc1n2C
  1.19, 3.43
CCc1ccccc1NS(=O)(=O)c1cc(Br)cc2c1N(C(=O)C1CC1)CC2
  0.961, -1.85
COC(CNC(=O)c1ccc2c(c1)N(Cc1ccccc1C)C(=O)c1ccccc1S2=O)OC (stereo not drawn)
  0.986, -0.258
COCCCNC(=O)c1cc(-c2ccncc2)nc2ccc(S(=O)(=O)N3CCOCC3)cc12
  1.06, 0.491
Cc1cc(C(F)(F)F)c2c(-c3ccccc3)nn(-c3ccccc3)c2n1
  1.28, 7.5
CCCN(CCC)CCNC(=O)C1CCN(S(=O)(=O)c2cnc[nH]2)CC1
  0.93, -1.32
Cc1[nH]c2c(C)ccc(F)c2c1CCNC(=O)COc1ccc(F)cc1F
  0.969, -0.444
CCSc1nnc(NC(=O)c2cccnc2)s1
  1.02, 0.304
O=C1CC(Cc2ccccc2)C(=O)N1c1cccc(Cl)c1 (stereo not drawn)
  1.07, 0.592
CCCOC(=O)Nc1ccc(S(=O)(=O)Nc2ncccn2)cc1
  0.992, -0.229
Cc1cc(C)cc(NC2c3ccccc3C(=O)N2c2cccnc2)c1 (stereo not drawn)
  1, 0.0794
Cc1cc(N2CCN(c3cc(Cl)ccc3C)CC2)n2nc(-c3ccccc3)cc2n1
  0.924, -0.749
CCOc1ccc(NC(=O)c2c(NCc3cc(OC)ccc3OC)sc3c2CCC3)cc1
  0.987, -0.658
COc1ccc(C2CC(=O)Nc3n[nH]c(C)c32)cc1 (stereo not drawn)
  1.04, 0.0413
C=CCOc1ncc2c(c1C#N)N(Cc1ccccc1)CC2
  0.862, -0.387
Cc1ccc(NC(=O)C2CCCN2S(=O)(=O)c2cccc3cccnc23)cc1F (stereo not drawn)
  0.987, -0.425
CCCN(CCC)S(=O)(=O)c1ccc(C(=O)Nc2ccccc2-c2nc3ccccc3[nH]2)cc1
  1.14, 2
CCn1c(=O)c(-c2ccc3ccccc3n2)cc2cc(Br)ccc21
  1.06, 0.407
CC(C)CCNC(=O)c1cc2c(s1)-c1ccccc1OC2
  1.04, 0.99
Cc1nnc(Sc2cc(C(=O)NC(C)c3ccc4c(c3)OCCO4)c3ccccc3n2)s1 (stereo not drawn)
  1.02, 0.161
Cc1ccc(C)c(Nc2nnc(-c3ccc(C)c(S(=O)(=O)N4CCOCC4)c3)c3ccccc23)c1
  0.736, -4.96
COc1ccc(C2=NOC(C(=O)Nc3ccc(F)cc3F)C2)cc1OC (stereo not drawn)
  1.04, 1.64
O=C(Cn1ncc2ccsc2c1=O)N1CCCC1
  1.04, 1.05
COc1ccc(CCNC(=O)Cn2cnc3c(nnn3Cc3ccc(F)cc3)c2=O)cc1OC
  0.845, -2.54
CCc1cccc(C)c1-n1nnnc1C(C)(C)N(C)C
  1.05, 1.14
CCc1ccc(OCC(=O)N(Cc2ccc(OC)cc2)C2CCS(=O)(=O)C2)cc1 (stereo not drawn)
  0.952, -1.6
CNC(=O)COc1ccc(Nc2nnc(-c3ccc(C)c(S(N)(=O)=O)c3)c3ccccc23)cc1
  0.847, -2.88
CCOc1ccccc1CNC(=O)c1oc2ccc(S(=O)(=O)N3CC(C)CC(C)C3)cc2c1C (stereo not drawn)
  1.03, 0.305
O=S(=O)(Nc1ccc(Cl)cn1)c1ccccc1
  0.993, -0.14
COc1ccc(-c2cc(-c3ccc(OC)cc3)nc(-c3ccccc3O)c2)cc1
  0.93, -2.06
Cc1ccc(NC(=O)CCc2nnc3ccc(N4CCN(c5cc(C)ccc5C)CC4)nn23)cc1
  0.795, -5.65
COc1ccc(-n2ccnc2SCC(=O)Nc2cccc(C(F)(F)F)c2)cc1
  0.846, -2.36
CCOC(=O)c1[nH]c2c(c1Cc1ccccc1OC)C(=O)CC(c1ccc(Cl)cc1)C2 (stereo not drawn)
  0.922, -0.998
Cc1nc2c(C(=O)N3CCN(c4ccccn4)CC3)cnn2c(C)c1Cc1cccc(Cl)c1
  0.972, -0.828
CCC1Oc2ccccc2N(CC(=O)NCCCN2CCCCC2)C1=O (stereo not drawn)
  1.02, 0.462
CCOc1ccc(NC(=O)CC2C(=O)N(Cc3ccccc3)C(C)c3nc4ccccc4n32)cc1 (stereo not drawn)
  1.05, 0.731
O=C(CC1CCCCC1)Nc1ccc2nc3n(c(=O)c2c1)CCCCC3
  1.02, 0.693

Full records as entered above. Order of screens: CBX7 AlphaScr, CBX7 AlphaScr z-score
Cc1nc2c(C(=O)N3CCN(c4ccccn4)CC3)cnn2c(C)c1Cc1cccc(Cl)c1 in the list: 0.972, -0.828
CC(C)CCNC(=O)c1cc2c(s1)-c1ccccc1OC2 in the list: 1.04, 0.99
COc1ccc(CCNC(=O)Cn2cnc3c(nnn3Cc3ccc(F)cc3)c2=O)cc1OC in the list: 0.845, -2.54
Cc1ccc(NC(=O)CCc2nnc3ccc(N4CCN(c5cc(C)ccc5C)CC4)nn23)cc1 in the list: 0.795, -5.65
COc1ccc(-c2cc(-c3ccc(OC)cc3)nc(-c3ccccc3O)c2)cc1 in the list: 0.93, -2.06

New compounds follow:
Fields: CBX7 AlphaScr, CBX7 AlphaScr z-score
CCOC(CNC(=O)c1ccc2c(c1)NC(=O)CS2)OCC
  1.08, 0.731
COc1ccc(NC(CNS(=O)(=O)c2ccccc2)c2ccccc2)cc1 (stereo not drawn)
  0.294*, -10.2*
Cc1ccc(C(=O)CC2(O)C(=O)N(CCc3ccccc3)c3ccccc32)cc1 (stereo not drawn)
  0.974, -0.694
Cc1ccccc1CNC(=O)Cn1ncc2ccccc21
  0.994, -0.179
CC(C(=O)c1ccccc1)C1(O)C(=O)Nc2ccc(Cl)cc21 (stereo not drawn)
  1, 0.135
CCC(Sc1nc(NCCc2ccccc2)c2ccccc2n1)C(=O)Nc1ccc2c(c1)OCO2 (stereo not drawn)
  1.05, 0.142
CC(Oc1ccccc1)C(=O)Nc1c(C(=O)Nc2cccc(F)c2)oc2ccccc12 (stereo not drawn)
  1.04, 0.482
CCOC(=O)c1ccc(NC(=O)CSc2nnc(CNC(=O)c3c(F)cccc3Cl)o2)cc1
  0.886, -1.87
CC1CC(O)(C#CCNc2ccccc2Cl)C(C)CN1C (stereo not drawn)
  1.06, 2.06
Cc1c(C(=O)NCCc2ccc(Cl)cc2)oc2ccc(S(=O)(=O)N3CCCCC3)cc12
  1.01, 0.00794
COc1cc(C2CC(=O)Nc3cc4c(cc32)OCO4)ccc1OC(C)C (stereo not drawn)
  0.921, -1.01
Cc1cccc(OCCn2c(SCc3nc4ccccc4[nH]3)nc3ccccc32)c1
  0.711, -7.19
CC(=O)N1CCc2c(sc(NC(=O)c3ccc(S(=O)(=O)N4CCCC4)cc3)c2C(N)=O)C1
  1, 0.0873
CCOC(=O)c1ccc(-c2n[nH]c(=O)c3ccccc23)cc1
  0.875, -1.37
CCCN(CCC)C(=O)c1c[nH]c2ccc(S(=O)(=O)Nc3ccc4c(c3)OCCO4)cc2c1=O
  0.96, -0.528
CCC(=O)N1CCc2cc(S(=O)(=O)NC(C)C)ccc21
  0.993, -0.0719
COc1ccc(Nc2nc(Cc3ccccc3)nc3sc4c(c23)CCCC4)c(OC)c1
  1.01, 0.24
Cc1ccc(C(O)(C(=O)Nc2ccccn2)c2ccc(C)cc2)cc1
  0.911, -0.418
COc1ccc(CNC(=O)c2cc(-c3cccc(Cl)c3)on2)cc1
  1.02, 0.644
O=C(CSc1nccn1-c1cccc(Cl)c1)Nc1ccc(OC(F)(F)F)cc1
  0.967, -0.581
Cc1oc(-c2ccc(Cl)cc2)nc1CN1CCCC(C(=O)NC2CCC(C)CC2)C1 (stereo not drawn)
  1.01, 0.226
COc1ccc(Nc2cc(C(=O)NCc3ccc4c(c3)OCO4)c3ccccc3n2)cc1
  1.02, 0.216
CC(NS(=O)(=O)c1ccc(Cl)cc1)C(c1cccs1)N1CCN(c2ccccc2)CC1 (stereo not drawn)
  0.851, -3.62
c1ccc(Cc2nnc(SCc3nnc(-c4ccccc4)o3)n2-c2ccccc2)cc1
  0.884, -2.16

Assay outcomes from PubChem.
